Source: PubChem BioAssay
Sa growth 42C: S. aureus growth inhibition; S. aureus RN4220 growth, OD600, 20 h, 42 °C; active compounds read low; relative growth, % (concentration not given with the values); 170,000 compounds, 0.53% hits; AID 720641;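 active means growth at 42 °C up to 50% and 20 or more points under that at 30 °C, or under 10% at both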;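 further: 300 nL library stock went into each well; scaled to the means of positive and negative controls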
GIV-Gai inh: GIV-Galpha-i interaction inhibition. P08753. Galpha-i3/FITC-GIV peptide fluorescence polarization, 90 min; active compounds read low; scaled: aluminum fluoride 0%, vehicle 100%. percent of control (FP), % (concentration not given with the values). 210,000 compounds, 0.42% hits;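 active means replicate mean at 85% of control or lower, very high polarization wells dropped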;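 further: wells of about 15 µL received 100 nL stock; the first replicate is given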
Target sequence (P08753 whole entry, looked up): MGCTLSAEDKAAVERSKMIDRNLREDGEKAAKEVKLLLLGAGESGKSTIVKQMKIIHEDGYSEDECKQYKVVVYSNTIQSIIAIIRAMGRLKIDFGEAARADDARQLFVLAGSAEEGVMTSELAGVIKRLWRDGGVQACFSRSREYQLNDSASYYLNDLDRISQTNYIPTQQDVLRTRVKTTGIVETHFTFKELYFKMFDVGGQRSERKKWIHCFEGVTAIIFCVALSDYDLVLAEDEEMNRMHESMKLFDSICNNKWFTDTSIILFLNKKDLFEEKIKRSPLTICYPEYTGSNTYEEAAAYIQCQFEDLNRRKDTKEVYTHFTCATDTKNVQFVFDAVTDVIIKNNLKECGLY
HCMV UL50-53 inh: inhibitors of HCMV UL50-UL53 nuclear egress complex interaction | inhibition, % (concentration not given with the values) | AID 1918969 | 190,000 compounds, 0.15% hits | HTRF UL50-UL53 interaction, normalized percent inhibition;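 active means both replicates at 50% or more, plus weaker picks with an unusually low signal ratio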;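 further: stock transfer was 100 nL into about 20 µL; 0% = negative control wells and 100% = wells with untagged competitor protein; inactives centre near -12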
Sa growth 42C second temp: further read-out of Sa growth 42C, marked with its call; relative growth, %; measured here: growth at 30 °C;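 optical density after 20 h as mean of two plates; 100% = untreated growth and lower means inhibition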
* = called active by the depositor; · = no result given; & = joins results of further samples. No enrichment for hits. Share with any hit: about 0.79%.

SMILES	Sa growth 42C	Sa growth 42C second temp	GIV-Gai inh	HCMV UL50-53 inh
c1csc(-c2nnc3n2C2(CCCC2)Cc2ccccc2-3)c1	91.7	76.6	107.2	-10.7
CCc1nc(-c2ccc(C(=O)NCC(=O)Nc3ccccc3F)cc2)no1	·	·	105.0	-39.2
CN(C)C1(CNC(=O)COc2ccc([N+](=O)[O-])cc2)CCCCC1	92.0	91.9	109.4	-33.5
Cc1cc2c(cc1S(=O)(=O)N(C)CC(=O)Nc1cccc(C#N)c1)OCC(=O)N2	101.2	82.7	103.6	·
O=C1N(Cc2ccccc2)CCCC12CCCN(Cc1ccccc1)C2=O	102.1	111.2	97.5	-4.0
Cc1cc(C)n(-c2nc(NC(C)C)nc(NC(C)C)n2)n1	-0.4*	0.1*	107.5	7.6
O=C1CCN=C(SCC(=O)Nc2ccccc2)N1	98.1	104.0	101.0	-1.4
COc1ccc2c(c1)C=C(C(=O)Nc1nccs1)C=CO2	·	·	107.5	-2.9
CN(C)c1ccc(NC(=O)COC(=O)c2ccc(Br)cc2)cc1	84.0	87.7	·	-25.4
O=C(Nc1cccc(Cl)c1)c1scc2c1OCCO2	93.4	84.6	99.1	-19.4
CCCN(CC(=O)Nc1ccccc1C(=O)NC1CC1)Cc1nnc(-c2ccco2)o1	85.6	85.3	·	-0.7
CC(C)C(=O)Nc1ncc(Cc2ccccc2)s1	144.6	104.8	108.7	-4.8
O=C(CSc1nccn2nc(-c3ccc(F)cc3)cc12)Nc1ccc2c(c1)OCO2	·	·	102.9	0.5
CCOC(=O)c1c(NC(=O)c2nc3n(n2)C(C(F)F)CC(C)N3)sc2c1CCCC2 (stereo unspecified)	112.4	100.0	101.2	1.3
Nc1nnc(-c2ccccc2)c(-c2ccccc2)n1	131.0&77.4	73.2&76.1	110.6	-88.0&-73.7
CC(O)(C#CC12CC3CC(CC(C3)C1)C2)c1cccs1 (stereo unspecified)	85.4	85.5	·	1.7
Cc1ccccc1NC(=O)CCC(=O)N1CCSc2ccccc21	89.6	83.2	100.8	·
Clc1cccc(-c2noc3ncnc(NC4CCCCC4)c23)c1	93.2	85.8	100.7	-0.7
CCOC(=O)c1c(C)[nH]c(CCC(=O)NCc2ccc(F)cc2)c1C	75.8	95.3	106.3	·
CC1CCN(C(=O)Cn2c(=O)n(Cc3ccc(F)cc3)c(=O)c3ccccc32)CC1	115.2	94.5	101.7	3.2
Fc1ccc(-c2nnc(SCc3ncc(-c4ccccc4)o3)n2CC2CCCO2)cc1 (stereo unspecified)	98.6	65.3	·	-6.8
O=C(OCc1ccco1)c1ccc2c(c1)N(Cc1cccc(F)c1)C(=O)c1ccccc1S2	85.1	90.7	101.3	·
Cc1cc(-c2ccccc2)n2ncc(C#N)c2n1	96.6	80.3	99.7	-17.4
CCn1c(=O)c2sccc2n2c(SCc3ccc(N4CCCC4=O)cc3)nnc12	·	·	103.5	-41.2
CCc1ccc(NC(=O)CSc2nc3c(oc4ccccc43)c(=O)n2CC)cc1	107.0	95.5	100.8	-18.5

The closing 3 entries of the part above open the next one:
SMILES	Sa growth 42C	Sa growth 42C second temp	GIV-Gai inh	HCMV UL50-53 inh
Cc1cc(-c2ccccc2)n2ncc(C#N)c2n1	96.6	80.3	99.7	-17.4
CCn1c(=O)c2sccc2n2c(SCc3ccc(N4CCCC4=O)cc3)nnc12	·	·	103.5	-41.2
CCc1ccc(NC(=O)CSc2nc3c(oc4ccccc43)c(=O)n2CC)cc1	107.0	95.5	100.8	-18.5
O=C(CSc1nc2ccccc2n1-c1ccccc1)NCC1CCCO1 (stereo unspecified)	91.1	84.6	·	-29.2
Cc1ccccc1NC(=O)C(C)c1c(C)n[nH]c1C (stereo unspecified)	96.1	101.2	111.0	-6.4
COc1ccc(C(=O)O)cc1Nc1nc2ccccc2n2c(C)nnc12	96.1	92.3	101.7	·
NS(=O)(=O)c1ccc(NC(=O)C(F)(F)F)cc1	95.0	99.9	93.4	-7.2
COc1ccc(CNC(=O)CS(=O)(=O)c2cccc3nsnc23)cc1	100.4	94.2	102.9	·
O=C(CSC1CCCCC1)N1CCCC1	113.3	89.0	·	-26.5
COc1ccc(C)c2c1CCCC2=O	86.4	85.2	·	3.0
COc1cccc(C2C(C#N)=C(N)Oc3n[nH]c(-c4ccc5c(c4)OCO5)c32)c1OC(=O)N1CCOCC1 (stereo unspecified)	·	·	100.8	-11.3
CCn1c(=O)n(-c2ccc(F)c(Cl)c2)c(=O)c2sc3ccccc3c21	102.3	85.5	102.8	-34.2
COc1ccc(NC(=O)CSc2nc3c(oc4ccccc43)c(=O)n2C)cc1OC	104.0	91.4	98.9	·
CCN(CC)S(=O)(=O)c1cc2c3c(c1)c(C)cc(=O)n3CCC2	92.9	84.7	106.7	-4.4
COC(=O)C1=C(C)NC2=C(C(=O)CC(c3ccc(OC)c(OC)c3)C2)C1c1ccc(Cl)cc1Cl (stereo unspecified)	·	·	97.1	-11.9
Cc1ccc(NC(=O)c2ccc3nnc(C)n3c2)c(C)c1	·	·	103.1	-63.8
CCCN1C(=O)c2ccccc2NC1c1ccc(OC)c(COc2ccc(Cl)cc2)c1 (stereo unspecified)	·	·	99.0	1.0
CCC(Sc1nc2ccsc2c(=O)n1C1CC1)C(=O)Nc1cccc(C)c1 (stereo unspecified)	126.3	90.2	107.6	0.0
CCS(=O)(=O)N1CC(=O)N(c2cccc(C)c2C)C(C)(C(=O)NC2CCCCC2)C1 (stereo unspecified)	127.7	100.5	108.5	·
Cc1ccc(C(=O)CSc2nnc(-c3cccs3)n2C)o1	96.8	83.5	·	-21.9
COc1cc(-c2noc(-c3cc(-c4cc(C)ccc4C)n[nH]3)n2)ccc1OC(C)C	·	·	109.1	-12.5
O=C(Nc1ccccc1)c1nnc(CCC(=O)N2CCN(c3ccccn3)CC2)s1	·	·	98.4	-8.0
Cc1cc(NS(=O)(=O)c2cccs2)n[nH]1	106.4	75.3	108.6	-6.2
CC(=O)Nc1nc(C)c(-c2csc(Nc3ccc(S(=O)(=O)Nc4nc(C)cc(C)n4)cc3)n2)s1	·	·	113.0	-30.3
COc1ccc(CNC(=O)CN2CCNC(=O)C2)cc1OC	82.7	89.6	·	-25.4
COC(=O)C1=C(C)N(Cc2ccco2)C(=O)/C1=C\c1cc(C)n(-c2ccc(OC)c(Cl)c2)c1C	100.5	94.5	110.3	6.8
Cc1c(NC2=NC3(CCCCC3)Cc3ccccc32)c(=O)n(-c2ccccc2)n1C	95.1	98.6	99.7	-5.0
CCN(CC)CCN1C(=O)C(=O)/C(=C(/O)c2cnn(-c3ccccc3)c2C)C1c1cccs1 (stereo unspecified)	97.2	99.2	108.6	1.3
Continued.
SMILES	Sa growth 42C	Sa growth 42C second temp	GIV-Gai inh	HCMV UL50-53 inh
Cc1nc2nc(C)c(CCC(=O)N3CCN(c4ccc(F)cc4)CC3)c(C)n2n1	·	·	99.4	-10.1
Cc1cc(C)cc(N=Cc2cccc(OCc3ccccc3)c2)c1	99.3	88.4	·	-12.2
CC1CCN(S(=O)(=O)c2ccc3c(c2)oc(=O)n3CC(=O)NCc2ccc3c(c2)OCO3)CC1	·	·	103.7	-6.3
CCOc1ccc(-c2cc(CCCC(=O)NCCc3ccc(SC)cc3)no2)cc1	110.2	88.2	101.4	-43.4
O=C(Nc1cc2ccc(O)cc2oc1=O)c1ccccc1	115.4	92.6	103.0	·
CCC(=O)Nc1ccc(C(=O)CSc2ncc(C#N)c(N)n2)cc1OC	81.1	78.5	109.8	-14.4
O=C(CSc1nc(-c2ccccc2)[nH]c1-c1ccccc1)Nc1ccc2c(c1)OCO2	112.9	79.0	104.9	9.8
COCCNC(=O)CSc1nc2cc3c(cc2c(=O)n1CCCC(=O)NCc1ccc2c(c1)OCO2)OCO3	81.3	84.0	101.1	·
c1ccc2nc(-c3nn4c(C5CCCCC5)nnc4s3)ccc2c1	·	·	112.7	-24.0
Cc1cccc(N(C)C(=O)c2cnccc2C(F)(F)F)c1C	109.5	77.8	119.2	1.3
O=C(O)c1ccccc1NC(=O)c1cc2ccccc2oc1=O	93.5	88.5	101.5	-96.0
CCOC(=O)CCc1c(C)nc2nc(CNc3ccc(F)cc3)[nH]n2c1=O	·	·	103.5	-23.3
COc1ccc(NC(=O)NC2COc3ccccc3C2)cc1Cl (stereo unspecified)	104.8	90.6	102.0	·
CCOc1ccc(CNS(=O)(=O)c2ccc(-c3coc(C)n3)cc2)cc1	108.8	95.1	109.9	·
Cc1ccc(-c2nc(-c3ccc4c(c3)[nH]c(=O)c(=O)n4C)no2)c(C)c1	·	·	97.7	9.4
O=C(O)C1C2C=CC(C2)C1C(=O)N1CCC(Cc2ccccc2)CC1 (stereo unspecified)	98.4	84.6	102.7	-14.2
CC(C)NC(=O)C1CCN(C(=O)c2cnn(-c3ccccc3)c2-n2cccc2)CC1	101.5	87.4	101.4	-19.2
Cc1ccc(C(=O)NCCc2ccc(Cl)cc2)cc1-n1c(C)nc2cccnc21	143.2	83.6	107.7	·
CCOc1ccc(NC(=O)c2ccc(F)c(S(=O)(=O)NCc3ccc4c(c3)OCO4)c2)cc1	123.9	73.5	100.9	·
CN(C)CCN(Cc1ccccc1)C(=O)c1cc2ccc3cccnc3c2[nH]1	92.3	57.1	97.6	-11.4
O=C(NC1CCCCNC1=O)c1ccc(N2CCOCC2)nc1 (stereo unspecified)	85.2	97.3	112.0	-21.2
Cc1cc(C(=O)Nc2cccc(Br)c2)c2c(=O)n(C)c(=O)n(C)c2n1	·	·	101.9	-30.2
O=C(/C=C/Nc1ccccc1C(F)(F)F)c1ccco1	101.4	84.6	104.4	-66.1
COC(=O)C1C(c2ccc(N(C)C)cc2)C(C(=O)OC)S(=O)(=O)CS1(=O)=O (stereo unspecified)	90.4	77.5	108.4	-13.7
CCNCc1ccc(-c2ccc(F)cc2)o1	·	·	102.7	3.4
COc1ccc(OC)c(S(=O)(=O)NCCc2csc3nc(-c4ccccc4)nn23)c1	125.2	79.6	97.7	·
Cc1ccc(-n2ncc3c(Nc4cccc(C)c4C)ncnc32)cc1	109.6	92.2	105.9	·
Cc1ccc(C(=O)CC(Sc2ccccc2N)c2ccsc2)cc1 (stereo unspecified)	101.7	97.3	103.9	-6.4

Ordered by SMILES length (lowest first): 5 of the compounds above.
SMILES	Sa growth 42C	Sa growth 42C second temp	GIV-Gai inh	HCMV UL50-53 inh
Cc1ccc(C(=O)CSc2nnc(-c3cccs3)n2C)o1	96.8	83.5	·	-21.9
c1csc(-c2nnc3n2C2(CCCC2)Cc2ccccc2-3)c1	91.7	76.6	107.2	-10.7
CN(C)c1ccc(NC(=O)COC(=O)c2ccc(Br)cc2)cc1	84.0	87.7	·	-25.4
CN(C)C1(CNC(=O)COc2ccc([N+](=O)[O-])cc2)CCCCC1	92.0	91.9	109.4	-33.5
CC(=O)Nc1nc(C)c(-c2csc(Nc3ccc(S(=O)(=O)Nc4nc(C)cc(C)n4)cc3)n2)s1	·	·	113.0	-30.3

Profiles, quoted from the list:
`COC(=O)C1C(c2ccc(N(C)C)cc2)C(C(=O)OC)S(=O)(=O)CS1(=O)=O` (stereo unspecified) is entered as Sa growth 42C = 90.4; Sa growth 42C second temp = 77.5; GIV-Gai inh = 108.4; HCMV UL50-53 inh = -13.7
`c1ccc2nc(-c3nn4c(C5CCCCC5)nnc4s3)ccc2c1` is entered as Sa growth 42C = ·; Sa growth 42C second temp = ·; GIV-Gai inh = 112.7; HCMV UL50-53 inh = -24.0

Among those listed so far, these have a cyano group:
SMILES	Sa growth 42C	Sa growth 42C second temp	GIV-Gai inh	HCMV UL50-53 inh
Cc1cc2c(cc1S(=O)(=O)N(C)CC(=O)Nc1cccc(C#N)c1)OCC(=O)N2	101.2	82.7	103.6	·
Cc1cc(-c2ccccc2)n2ncc(C#N)c2n1	96.6	80.3	99.7	-17.4
COc1cccc(C2C(C#N)=C(N)Oc3n[nH]c(-c4ccc5c(c4)OCO5)c32)c1OC(=O)N1CCOCC1 (stereo unspecified)	·	·	100.8	-11.3
CCC(=O)Nc1ccc(C(=O)CSc2ncc(C#N)c(N)n2)cc1OC	81.1	78.5	109.8	-14.4
